# hNpr1 antagonist: antagonists of human natriuretic peptide receptor Npr1 | HEK293 hNpr1 GloSensor cGMP, ANP-stimulated luminescence | hit rate 1.6% among 76,000 | Potency, µM (top dose mostly 46.3 µM), for inactives: at the highest dose activity change, negative = inhibition, hits mostly inhibitors | P16066; active = well fitted inhibition curve with a large enough effect; inconclusive = small, poorly fitted or top-dose-only effect; inactive = no such curve, though single readings can be large or run the other way;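 further: nearly all actives have a fitted effect of over 60% in size; nearly all hits also lower the signal before the agonist is added; a reference antagonist and vehicle were the controls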
# Target sequence (P16066 whole entry, looked up): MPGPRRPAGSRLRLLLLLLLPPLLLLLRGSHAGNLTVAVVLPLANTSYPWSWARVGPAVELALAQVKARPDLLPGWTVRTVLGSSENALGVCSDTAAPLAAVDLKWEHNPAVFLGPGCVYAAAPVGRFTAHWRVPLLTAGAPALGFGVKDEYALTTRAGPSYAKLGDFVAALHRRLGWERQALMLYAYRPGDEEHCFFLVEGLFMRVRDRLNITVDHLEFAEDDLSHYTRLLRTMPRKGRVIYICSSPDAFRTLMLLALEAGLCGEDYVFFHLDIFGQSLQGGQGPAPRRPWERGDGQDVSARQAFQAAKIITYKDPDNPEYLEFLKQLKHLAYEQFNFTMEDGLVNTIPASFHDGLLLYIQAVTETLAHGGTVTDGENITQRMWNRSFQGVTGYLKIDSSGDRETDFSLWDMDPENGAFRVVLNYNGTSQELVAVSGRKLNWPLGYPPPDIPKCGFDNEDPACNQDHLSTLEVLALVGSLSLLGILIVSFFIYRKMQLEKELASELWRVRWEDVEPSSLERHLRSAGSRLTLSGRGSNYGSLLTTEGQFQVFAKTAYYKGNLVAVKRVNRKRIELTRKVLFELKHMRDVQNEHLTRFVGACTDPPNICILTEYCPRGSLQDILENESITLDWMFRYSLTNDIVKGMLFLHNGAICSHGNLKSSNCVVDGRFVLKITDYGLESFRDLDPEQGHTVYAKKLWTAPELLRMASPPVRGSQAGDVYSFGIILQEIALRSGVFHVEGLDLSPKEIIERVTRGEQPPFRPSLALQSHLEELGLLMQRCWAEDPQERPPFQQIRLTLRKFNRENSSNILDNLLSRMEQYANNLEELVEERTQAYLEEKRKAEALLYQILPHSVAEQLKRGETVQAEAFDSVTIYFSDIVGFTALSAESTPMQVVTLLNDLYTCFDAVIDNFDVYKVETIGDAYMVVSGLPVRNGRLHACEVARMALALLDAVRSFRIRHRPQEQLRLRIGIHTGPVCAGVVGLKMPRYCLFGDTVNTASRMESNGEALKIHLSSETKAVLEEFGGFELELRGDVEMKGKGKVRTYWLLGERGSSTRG
#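 HEK293 cells stably expressing human Npr1 and cGMP GloSensor pGS-40F, loaded 2 h with 2% GloSensor reagent, given compound 30 min at room temperature. Luminescence read before and 20 min after 0.1 nM hNppA.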
# * = called active by the depositor; ? = inconclusive; [ ] = dose if it differs, or a comment. On the % scale 0 is the no-effect control and ±100 the full control effect; potency means the concentration at half of the fitted maximal effect.
hNpr1 antagonist	SMILES
4%	COc1ccc(NC(=O)C2CC(=O)N(c3n[nH]c4cccc(F)c34)C2)c(OC)c1 (stereo unspecified)
0%	O=C(c1ccccc1)N1CCC2(CC1)SCC(=O)N2c1ccccc1
3%	CCN1C(=O)CCN(C(=O)c2cnc(C)cn2)CC12CCOCC2
-15%	CN(C(=O)c1ccc(-c2nnc3ccc(NC(=O)C4CCC4)cn23)cc1)C1CCCCC1
2%	COCc1ncc2c(n1)CCCN(CC(=O)Nc1ccccc1)C2=O
0%[70.6 µM]	COc1cccc(N2C(=O)OCC23CCN(Cc2cccc(F)c2)C3)c1 (stereo unspecified)
-6%[70.6 µM]	CC(=O)N1CCN(CC[C@@H]2CC[C@H](O)[C@@H](C(=O)N3CCOCC3)O2)CC1
2%	Cc1ncccc1C(=O)N1CCCCCCNC(=O)[C@@H]2CCCC[C@@H]21
5%	COCc1nc(C2CCN(C(=O)C3CCC3)C2)no1 (stereo unspecified)
-4%	O=C(CCc1cccc(F)c1)N1CCC(C(=O)O)(n2cccn2)CC1
3%	CCOc1ccccc1C(=O)NCCc1noc(C2CC2)n1
7%	CN(C)CC(=O)N1CCC(N2C(=O)C3(CCCC3)C2c2ccccc2)CC1 (stereo unspecified)
0%	CC(Cn1ccc2ccccc21)NC1CCN(c2ccc(C(=O)N(C)C)cc2)CC1 (stereo unspecified)
10%	CCOC(=O)CCNC(=O)N1CCC(N2C(=O)C3(CCCCC3)C2c2ccncc2)CC1 (stereo unspecified)
-1%	CCNc1ncc(CN2CCCC(CCc3cccc(C(F)(F)F)c3)C2)cn1 (stereo unspecified)
-1%[70.6 µM]	CC(C)CN1C(=O)C(C)(C)[S+](=O)([O-])[C@@H]2CN(Cc3ccncc3)C[C@@H]21
5%	COCCN1CC2(CCC1=O)CCN(C(=O)c1c(C)cccc1C)CC2
-8%	C=CCOC(=O)N(C)Cc1cn([C@H]2CN[C@H](C(=O)NC)C2)nn1
0%[70.6 µM]	Cc1cc(-c2nc3ccncc3[nH]2)c(C)o1
0%	CC(C(=O)NCCc1noc(-c2cccnc2)n1)c1ccccc1 (stereo unspecified)

# An excerpt of these results, comma-delimited:
SMILES,hNpr1 antagonist
COCCN1CC2(CCC1=O)CCN(C(=O)c1c(C)cccc1C)CC2,5%
COc1ccc(NC(=O)C2CC(=O)N(c3n[nH]c4cccc(F)c34)C2)c(OC)c1 (stereo unspecified),4%
Cc1cc(-c2nc3ccncc3[nH]2)c(C)o1,0%[70.6 µM]
CC(C(=O)NCCc1noc(-c2cccnc2)n1)c1ccccc1 (stereo unspecified),0%

# Compounds shown so far with sulfur (2):
hNpr1 antagonist	SMILES
0%	O=C(c1ccccc1)N1CCC2(CC1)SCC(=O)N2c1ccccc1
-1%[70.6 µM]	CC(C)CN1C(=O)C(C)(C)[S+](=O)([O-])[C@@H]2CN(Cc3ccncc3)C[C@@H]21

# Continued:
hNpr1 antagonist	SMILES
0%	COc1ccc(-c2cc(N3CCCN(C(=O)Cc4cccc(Cl)c4)CC3)n[nH]2)cc1
-2%[70.6 µM]	O=C(NC1CCCCC1)N[C@H]1[C@H](O)[C@@H](Oc2ccccc2)[C@@H]2OC[C@H]1O2
2%	COCCCNC(=O)N1CCCC(c2nc(-c3cnccn3)no2)CCNC(=O)CC1 (stereo unspecified)
2%	CN1C[C@@H]2CCCN3CCC[C@@H]([C@H]23)[C@H]1CCCC(=O)N1CCCCC1
-1%	Cc1ccc(C#N)c(-c2cc(NCc3cccnc3)nc3[nH]ccc23)n1
?	O=C(c1ccccc1F)N1CCN(c2cc(-c3cccs3)[nH]n2)CC1
8%	CC(=O)N[C@@H]1CN(C(=O)C2(c3ccccc3)CC2)C[C@H]1CO
0%	CCc1ccc(NC(=O)Cn2c(-c3cccc(Cl)c3)nc(C)c(CCO)c2=O)cc1
-17%	COCCNC(=O)CCCN1C(=O)COc2ccc(C(=O)COc3ccc(Cl)cc3C)cc21
2%	CC1CCC2(CC1)NC(=O)N(CC(=O)NC(C)CCc1ccccc1)C2=O (stereo unspecified)
-15%	COc1ccc(-c2cc(N3CCC(NC(=O)c4ccc(Br)cc4)C3)n[nH]2)cc1 (stereo unspecified)
0%	COCCOCC(=O)N1CCCCCC1c1nnc(-c2ccccc2)o1 (stereo unspecified)
-15%	COc1cc(C(=O)N2CCCN(S(C)(=O)=O)c3ccccc32)cc(OC)c1OC
-1%	Cc1ccc2nc3c(n2c1)C(c1ccccc1OCCN(C)C)CC(=O)NC3 (stereo unspecified)
0%	Cc1cccc(NC(=O)N2CCCCC2c2nc(-c3cnccn3)n[nH]2)c1 (stereo unspecified)
-5%	O=C(NCCc1ccccc1)N1CC(Oc2ccccc2-c2nc(-c3ccccc3)no2)C1
0%	Cc1cnc(C2CCC2)n1CCNS(=O)(=O)c1cc(F)ccc1F
-2%	Cc1nc(C2(C)CCN(C(=O)CCCC(=O)n3nc(C)c4ccccc43)CC2)no1
-2%	COc1ccccc1N1CCN(C(=O)C[C@@H]2O[C@H](CNC(=O)c3cccc(F)c3)[C@@H](O)[C@H]2O)CC1
-8%	Cc1ncc2c(c1CNC(=O)Cc1ccc(C(F)(F)F)cc1)CCNC2

hNpr1 antagonist	SMILES
6%[70.6 µM]	CCC(=O)NC[C@H]1O[C@H](Cc2cc(COc3ccccc3)on2)CC[C@@H]1O
0%	Cc1nc(-c2c3n(c(=O)n(CC(=O)Nc4ccc(C)c(Cl)c4)c2=O)CCCC3)no1
1%[70.6 µM]	CC[C@H]1CN(C(=O)c2ccc(F)cc2)CC[C@H]1CC(=O)NC(C)C
?	Fc1ccc(CN2CCC3(CC2)CC(c2cccc(C(F)(F)F)c2)=NO3)cc1
0%	CCOc1ccc(CN2CCCC(COc3ccccc3C(=O)NC(C)C)C2)cc1 (stereo unspecified)
-25%[70.6 µM]	Cn1cc(-c2ccc3c(n2)CN(CCOc2ccccc2)C(=O)CO3)cn1
-3%	O=C1NCCCCCCN(C(=O)c2ccoc2)[C@H]2CCCC[C@@H]12
0%	Cn1ccnc1CNC(=O)CC(c1cccc(O)c1)c1ccccc1Cl (stereo unspecified)
1%[70.6 µM]	COc1ccc(CN[C@H]2C[C@@H](Cc3cc(CN4CCOCC4)on3)C2(C)C)cc1
-8%	Cc1cc(=O)n(CC(=O)Nc2ccccc2F)c(N2CCc3ccccc3C2)n1
-1%[70.6 µM]	COc1ccc(S(=O)(=O)N[C@H](C)c2c(-c3ccc(F)cc3)noc2C(=O)O)cc1
-2%	Cc1ccccc1-c1noc(CCC(=O)N2CCC3(CCCNC3)C2)n1 (stereo unspecified)
1%	CN(C)c1ncnc2sc3c(c12)CCN(Cc1ccco1)C3
-2%	Nc1nc(C2CC(O)C2)cc(N2CCCN(C(=O)c3ccoc3)CC2)n1 (stereo unspecified)
3%	CCCn1nc(C)cc1CN(C)C(=O)[C@@H]1CN(C(C)=O)C[C@H]1c1nc(C)no1
-19%[70.6 µM]	COc1ccc(OC)c(CN2CC[C@@H]3OCC(=O)N(c4ccccc4)[C@H]3CC2)c1
2%[70.6 µM]	C[C@@H](NCC1CC1)c1onc(-c2ccc(Cl)cc2)c1C(=O)O
-14%	CCN1C(=O)Cc2cc(C(=O)NCc3c(C)cc(C)cc3C)ccc21
-2%	CCC(O)c1cc2n(n1)CCCN(C(=O)CCc1ccsc1)C2 (stereo unspecified)
-1%[70.6 µM]	Cc1noc([C@@H](C)NS(=O)(=O)c2ccc(Cl)cc2)c1C(=O)O

hNpr1 antagonist	SMILES
-26%[70.6 µM]	CNC(=O)CCn1ncc2cc(OCc3ccccc3-c3cccc(C)c3)ccc21
3%	COc1ccc(OC)c(NC(=O)c2cc3n(n2)CC(c2ccc(Cl)cc2)OC3)c1 (stereo unspecified)
4%	CCCN(CC1CC1)C(=O)C1CCC(=O)N(Cc2ccc(Cl)cc2)C1 (stereo unspecified)
7%	O=C(CN1CCCCCCC1)N1CCCC2(CCNC2)C1 (stereo unspecified)
5%	O=C1CCN(Cc2ccncc2)CCCC(c2nc(-c3cnccn3)no2)CCN1 (stereo unspecified)
5%	Cc1nc2scc(CC(=O)NCC(C)C)n2c(=O)c1-c1cc(C)n(-c2ccc(F)cc2)n1
0%	O=C(c1ccc2c(c1)[nH]c(=O)n2C1CCC(O)CC1)N1CCc2ccccc2C1 (stereo unspecified)
-2%	Cc1ccc(C(=O)N2CCC3(CC2)NC(=O)N(c2ccccc2Cl)N3)cc1C
0%[70.6 µM]	COC(=O)[C@@H](C)NC(=O)[C@H]1CN(C(C)=O)CCN1C(C)=O
-27%	O=C(c1ccc(-c2ccc(CO)cc2)nc1)N1CCC(CCc2ccccc2)CC1
2%	O=C(NCC1CC1)c1cn(C2CN(C(=O)Cc3cccc(F)c3)C2)nn1
8.9µM*	CC1(NC(=O)C2CC2)CN(Cc2nc(-c3ccc(Oc4ccccc4)cc3)cs2)C1
1%	O=C(c1cncc(Cl)c1)N1CCC(c2nn(-c3ccc(F)cc3)c(=O)[nH]2)CC1
-1%	O=C(NC1CCCN(c2cc(-c3ccc(Cl)cc3)[nH]n2)C1)c1cccnc1 (stereo unspecified)
-6%	CC(C)C(=O)N1CC[C@H](CO)[C@H](NC(=O)C2CC2)C1
8%	O[C@@H]1C[C@@H](c2nnc3n2CCN(Cc2ccc(F)c(F)c2)C3)N(Cc2ccccc2)C1
1%[70.6 µM]	Cc1ncc2n1C(=O)N(C1CCN(C(=O)c3ccccc3F)CC1)C2
1%	Cc1noc(-c2cccc(F)c2)c1C(=O)NCc1cccc2ccccc12
3%	Nc1nc(CCC(=O)N2CCn3nc(C(O)c4ccccc4)cc3C2)cs1 (stereo unspecified)
0%	O=C(c1ccncc1)N1CCC2(CC1)CC(OCC1CC1)CCO2 (stereo unspecified)

# Some of these compounds in order of SMILES length, highest first:
hNpr1 antagonist	SMILES
0%	O=C(c1ccc2c(c1)[nH]c(=O)n2C1CCC(O)CC1)N1CCc2ccccc2C1 (stereo unspecified)
3%	COc1ccc(OC)c(NC(=O)c2cc3n(n2)CC(c2ccc(Cl)cc2)OC3)c1 (stereo unspecified)
-27%	O=C(c1ccc(-c2ccc(CO)cc2)nc1)N1CCC(CCc2ccccc2)CC1

# (listing goes on)
hNpr1 antagonist	SMILES
6%[70.6 µM]	CC(C)N1CC[C@@H]2[C@H]1C(=O)NC[C@H](CCC(=O)N1CCc3ccccc31)N2C
3%[70.6 µM]	CNC(=O)[C@@H](Cc1ccccc1)N1CCC[C@H]1C(=O)NCCOC
-15%	COc1ccc(-c2noc([C@@H]3CCCN3C(=O)COc3cccc(C)c3)n2)cc1OC
13%	O=C(c1ccc2ncccc2c1)N1CCCC(Nc2ccc(F)cc2)C1 (stereo unspecified)
?	CC(c1ccc(F)cc1)N1Cc2cc(NC(=O)Cc3cccs3)ccc2OCC1=O (stereo unspecified)
1%	O=C(CN1C(=O)NC2(CCOCC2)C1=O)Nc1ccc(Cl)cc1F
6%	CCn1nccc1C(=O)N1CCCC1c1nc(CCOc2cccc(C)c2)no1 (stereo unspecified)
?	CC(C)C[C@@H]1N[C@H](C(=O)NC(C)C)Cc2cn(Cc3ccncc3)c3cccc1c23
-14%[70.6 µM]	COc1ccc(N2CCOC3CCN(Cc4cccc(Cl)c4)CC3C2=O)cc1 (stereo unspecified)
5%	CS(=O)(=O)N1CCCN(C(=O)CCCc2ccccc2)c2ccccc21
1%	CN(C)CCN1CCCN(C(=O)CCc2ccccc2)c2ccccc21
0%	O=C1CC(c2ccccc2)N(C(=O)CC2CCCCC2)CCCCCCN1 (stereo unspecified)
2%	CN(C)[C@@H]1CN(Cc2ccc(C#N)cc2)CC[C@@H]1CNC(=O)C1CC1
5%	CNc1nccc(N2CCC(CC(=O)NCCCN3CCOCC3)CC2)n1
1%	NC(=O)CN1CCCC(c2nc(-c3ccc4nc[nH]c4c3)no2)C1 (stereo unspecified)
-4%	CO[C@H]1C(=O)N(C(C)C)[C@H]1C1CCN(C(=O)CCc2ccccc2)CC1
-4%[70.6 µM]	Cc1ccc2c(n1)N(C)[C@H](CO)CCN(Cc1cccc3c1OCO3)C2
4%	CCn1cc(S(=O)(=O)N2CCC3(CC2)CC2C(=O)NCCN2C3)cn1 (stereo unspecified)
0%[70.6 µM]	CN(C)CCN(C)[C@H]1[C@@H]2OC[C@@H](O2)[C@@H](NCc2ccc(N(C)C)cc2)[C@@H]1O
-1%	COc1cccc2c1OCCCN(Cc1nnc(-c3ccccc3)o1)C2

# hNpr1 antagonist: what is marked active above
hNpr1 antagonist	SMILES
8.9µM*	CC1(NC(=O)C2CC2)CN(Cc2nc(-c3ccc(Oc4ccccc4)cc3)cs2)C1

# (cont.)
hNpr1 antagonist	SMILES
-3%	CCOc1ccc(C(=O)N2CCC(Cc3nc(-c4cnccn4)no3)CC2)cc1OCC
-12%	O=C(c1ccc2ccccc2n1)N1CC(c2nnc(-c3ccncc3)o2)C2(CCOCC2)C1 (stereo unspecified)
?	Cc1cccc2c1nc1n2[C@@H](CNCc2nc3ccccc3n2C)COC1
3%	CC(C)Oc1ccc(C(=O)N2CCC3(CC2)C(=O)N(C)c2ccccc23)cc1
7%	COc1ccc(NC(=O)CN2C(=O)NC3(CCS(=O)(=O)CC3)C2=O)cc1
-2%[70.6 µM]	Cc1cccc(-c2ccc3c(c2)C(=O)N2CC[C@H](N)[C@H]2C(=O)N3)c1C
1%	COCCN1C(=O)c2cccn2CC1CNC(=O)Nc1ccc(OC)cc1 (stereo unspecified)
?	Cc1ccc(-c2cn3c(n2)CO[C@@H](CNC(=O)c2ccc(Cl)cc2)C3)cc1
-10%	Cc1ccc(C2Cn3nnc(C(=O)N4CCN(C(=O)c5c(F)cccc5F)CC4)c3CO2)cc1 (stereo unspecified)
5%	CCC1(N2CCN(C(=O)c3cccc(OC(F)(F)F)c3)CC2)CCN(S(C)(=O)=O)C1 (stereo unspecified)
-16%	Cc1ccccc1N1Cc2c(NCc3ccccn3)ncnc2N(C)CC1=O
3%	COCc1noc([C@@H]2CC(F)(F)CN2S(=O)(=O)c2ccccc2)n1
1%	CN(Cc1cnccn1)C(=O)CC(c1ccccc1)c1ccccc1Cl (stereo unspecified)
-4%	CC(C)C(=O)N1CCCC(CN2CCOCC2)CC1 (stereo unspecified)

# This is a subset (hit frequency here may not be typical).
